High-throughput results deposited in PubChem BioAssay by NMMLSC.
Bead autofluor = counter-screen for toxin protease inhibitors: compound fluorescence; compound autofluorescence counterscreen, microsphere flow cytometry; active compounds read high; 360,000 tested, 3.1% active; fluorescence intensity (no concentration beside the values);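 active means at least 3 SD above the mean of all compounds, about 16000 in these data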;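 further: 100 nL of 1 mM stock went into each well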
* hit, by the source's call.

SMILES	Bead autofluor
CC(C)(C)S(=O)N1Cc2cc(C(=O)Nc3ccc(-c4ccccc4)cc3)nc(-c3cccc(-c4cc5ccccc5o4)c3)c2[C@@H]1CCO (stereo partly specified)	4513
CCCc1nc2ccc(C)cn2c1Cc1cccc(Cl)c1	6197
CC1(Cc2cc(Cl)ccc2C(F)(F)F)C(=O)Nc2cc(-c3ccccc3Cl)ccc21 (stereo unspecified)	3628
C=C1C(=O)[C@]23C[C@H]1CC[C@H]2[C@]1(C)[C@@H](OC(C)=O)CC[C@@](C)(C(=O)O)[C@H]1C[C@@H]3O	6127
O=C(CCOc1ccccc1)N1CCCC(Nc2ccccc2)C1 (stereo unspecified)	3990
C[C@H]1COc2cc(N3CCN(C)CC3)ccc2S(=O)(=O)N1	4084
Cc1cc2nc(-c3cccc(Br)c3)c(Cc3cccc(Cl)c3)n2c(C)c1Br	5299
CCCNC(=O)C1(C)CCCN(C(=O)c2ccc(OC(F)F)cc2)C1 (stereo unspecified)	3549
C[C@H](O)[C@@H]1CN2CCc3c([nH]c4ccccc34)[C@@H]2C[C@@H]1N(C)C(=S)Nc1ccc(C#N)cc1	6949
O=C(Nc1ccc(Oc2ccccc2)cc1)c1csc([C@@H]2O[C@H](CO)[C@H](O)[C@H](O)[C@H]2O)n1	3540
CCOC(=O)c1sc2nc(OCc3cccnc3)cc(C)c2c1N	4710
C[C@H]1CCCCO[C@@H](CN(C)C(=O)NC2CCCCC2)[C@@H](C)CN([C@@H](C)CO)C(=O)c2cc(NC(=O)Cc3ccccc3)ccc2O1	4367
O=C(NC(Cc1cn(Cc2ccccc2)cn1)C(=O)O)OCC1c2ccccc2-c2ccccc21 (stereo unspecified)	5938
O=C(Cc1ccc(Br)cc1)Nc1cccc(S(=O)(=O)N2CCCCC2)c1	3790
COc1cccc(C(=O)N2CCN(c3nc4cc(C)cc(C)c4cc3C#N)CC2)c1	3702
O=C(c1ccccc1)c1sc(Nc2ccc3c(c2)OCO3)nc1-c1ccccc1	5743
CCN1C(=O)[C@H]2[C@@H](c3ccc(OC)cc3)N[C@]3(CCCN(Cc4ccccc4)C3=O)[C@H]2C1=O	3817
N#Cc1ccc(-c2nc3ccc(Br)cn3c2Cc2ccccc2)cc1	3523
COc1ccc(C(=O)N(C)[C@H]2C[C@H]3c4[nH]c5ccccc5c4CCN3C(=O)[C@H]2CO)cc1	3419
CC(C)n1c(=O)c2ccccc2n1C(=O)c1ccccc1	5342
Cc1ccc(NC(=O)C2(C)CCN2CCc2ccccc2)cc1O (stereo unspecified)	3879
O=NN(CCF)C(=O)NC1CCS(=O)(=O)CC1	5977
N#Cc1cnc2nc1NCCCCCCC2	4049
CC(C)(C)c1nc2ccc(Cl)cn2c1CC1CCCCC1	4506
CN(c1ccccc1)S(=O)(=O)c1cccc(NC(=O)CCNC(=O)c2ccco2)c1	2870
CCC(c1nnnn1Cc1ccccc1)N1CCN(C/C=C/c2ccccc2)CC1 (stereo unspecified)	5627
COc1cccc(-c2cnc(C(O)c3ccc(C)cc3)[nH]2)c1 (stereo unspecified)	2956
CC(=O)N(C(C)=O)c1ccc(Oc2ccc(Oc3ccc(N(C(C)=O)C(C)=O)cc3)cc2)cc1	4143
CC(=O)NC(c1cccs1)c1cc(Br)c2cccnc2c1O (stereo unspecified)	3586
CC(C)n1ncc2c(C(=O)N3CCN(S(=O)(=O)c4cccc(F)c4)CC3)cc(C3CC3)nc21	3634
Cc1ccc(C(O)c2ncc(-c3cccc4ccccc34)[nH]2)c(C)c1 (stereo unspecified)	3452
CC(=O)Nc1cc(-c2ccccc2F)cn2c(-c3cccc(C(F)(F)F)c3)cnc12	3597
Cc1ccc(Cn2c(C)c(C(=O)NCC(C)C)sc2=O)cc1	5330
CCCC(=O)Nc1cccc(NC(=O)Cc2ccc(Cl)cc2)c1	5688
COc1cccc(-c2cnc(C(O)c3cc(C)c(OC)c(C)c3)[nH]2)c1 (stereo unspecified)	4031
COc1ccc(S(=O)(=O)N2CCC[C@@H]2C(=O)N2CCC[C@H]2C(=O)NCc2ccncc2)cc1C	4352
Cc1ccc(CNC(=O)[C@H]2O[C@@H](n3ccc(N)nc3=O)[C@H](O)[C@@H]2O)o1	5675
CC1=C(C(=O)N2CCOCC2)CC(CC(=O)NCCN2CCOCC2)C(=O)N1Cc1ccccc1 (stereo unspecified)	2937
CC1CCCN(S(=O)(=O)c2ccc3[nH]c(=O)cc(C(=O)NCCCN4CCCCCC4)c3c2)C1 (stereo unspecified)	4000
CCOC(=O)C1=CCN(S(=O)(=O)c2ccc(Cl)cc2)C1c1ccccc1 (stereo unspecified)	4295
O=S1(=O)CC(c2ccccc2)=NN=C(c2ccccc2)C1	3540
O=C(c1ccoc1)N1CCN(c2cc(-c3ccccc3)nc3cc(-c4ccc(Br)cc4)nn23)CC1	3447
Cc1cc(F)ccc1C(O)c1ncc(-c2ccccc2F)[nH]1 (stereo unspecified)	3003
CCCCNC(=O)c1ccc(Cc2cn(C)c3ccccc23)nc1	3063
c1cncc(CN2CCN(c3cc(-c4cnc5ccccc5c4)nc4ccnn34)CC2)c1	3759
C[C@H](CO)N1C[C@H](C)[C@@H](CN(C)S(=O)(=O)c2cccc(C#N)c2)OCc2cnnn2CCCC1=O	3005
CCOC(=O)C1CC(c2ccccc2)=NN1c1ccccc1 (stereo unspecified)	3620
COc1cc(Cl)ccc1OC1(C)CCN(Cc2ccc(-c3ccccn3)cc2)C1 (stereo unspecified)	2889
COC[C@@H]1CCCN1c1ccc2c(c1)O[C@@H](COCc1ccccc1)CN([C@H](C)c1ccccc1)S2(=O)=O	4343
OC[C@@H]1CN(Cc2ccc3c(c2)OCO3)C[C@H](n2cnc3c(NC4CC4)ncnc32)O1	3675

Going on with the list.
SMILES	Bead autofluor
CSc1ncccc1C(=O)N1CCCC(Nc2ccc(F)c(F)c2)C1 (stereo unspecified)	3727
c1ccc2c(CCN3CCCCC3)c[nH]c2c1	4372
O=C1NCN(c2ccccc2)C12CCN(C(CCc1ccccc1)c1nnnn1C1CCCC1)CC2 (stereo unspecified)	5776
CC1(C(=O)Nc2cccc3cccnc23)CCN1C(=O)CC1CC1 (stereo unspecified)	3598
CCc1nc2c(OCc3ccc(OC)cc3)cccn2c1N(C)C(=O)c1ccncc1	3777
COc1ccc(C(=O)OCC(=O)c2ccco2)cc1[N+](=O)[O-]	2888
CCC(C)c1ccc(S(=O)(=O)N2CCN(C(=O)CN3C(=O)NC(C)(C4CC4)C3=O)CC2)cc1 (stereo unspecified)	3989
CCCCn1nnnc1C(c1cc2ccccc2o1)N1CCN(CC(=O)N2CCCC2)CC1 (stereo unspecified)	5412
CSc1ccc(Cn2c(C)c(C(=O)NCc3ccc4c(c3)OCCO4)sc2=O)cc1	5975
COCCNC(=O)C1(C)CCCN(C(=O)c2c(-c3ccccc3)noc2C)C1 (stereo unspecified)	2897
CN1CCN(C(c2ccccc2)c2nnnn2C(C)(C)C)CC1 (stereo unspecified)	5863
CCOC(=O)c1c(C)[nH]c(C(=O)OCC(=O)NCc2ccco2)c1C	3540
COCCNc1nc(NC(C)C)nc2ccsc12	2915
CCOC1=C2CN(S(=O)(=O)c3ccc(C)cc3)[C@@H](c3ccc(CC)cc3)C[C@H]2[C@H]2C(=O)N(c3ccccc3)C(=O)[C@H]2C1	5791
CN(C)c1ccc(C=C2SC(=S)N(Cc3ccco3)C2=O)cc1	9045
CNC(=O)C[C@H]1C(=O)N(CCc2ccccc2)C[C@@H]1Cc1ccccc1	3880
CC(=Cc1ccccc1)C(=O)c1ccccc1	3843
COc1ccc(-c2ccc(C(=O)Nc3cccc(F)c3)c3occc23)c(C)c1	3794
Cc1cccc(C)c1-n1nnnc1C1c2ccccc2C(=O)N1CCOc1ccccc1 (stereo unspecified)	4196
CN1CC2CN(Cc3ccccc3)S(=O)(=O)C2C1 (stereo unspecified)	5264
c1ccc(CNc2nc(NCc3ccccc3)c3sccc3n2)cc1	3572
Cc1ccc(OCCN2CCC2(C)C(=O)NCc2cccc3ccccc23)cc1 (stereo unspecified)	4040
O=C(O)Cc1ccc2c(c1)Cc1cccnc1O2	4181
CCOC1=C2[C@@H](CN(S(=O)(=O)c3ccc(C)cc3)[C@H]2c2cccs2)[C@H]2C(=O)N(c3ccccc3)C(=O)[C@H]2C1	5585
CN(N=Cc1ccccc1O)c1ccc2ccccc2n1	3797
Cc1ccc(S(=O)(=O)N2C[C@@H](C)[C@]3(C2)[C@H](O)[C@H](OC(=O)NCc2ccco2)C[C@H]2C(=O)N(c4ccccc4)C(=O)[C@H]23)cc1	3574
CCSc1ccc(-c2cc(NC=O)c3ncc(-c4cc(OC)c(OC)c(OC)c4)n3c2)cc1	3946
CN1CCn2cnc(C(=O)NCc3ccc(CNC(=O)OC(C)(C)C)cc3)c2C1=O	5979
Cc1nc(-c2cccc(NC(=O)c3ccc(Cl)c(S(=O)(=O)N4CCCC4)c3)c2)cs1	3779
COc1cccc(NC(=O)C2(C)CCN2C(=O)CCc2ccc(Cl)cc2Cl)c1 (stereo unspecified)	3800
CCCCNC(=O)C1(C)CCCCN1C(=O)c1sccc1C (stereo unspecified)	2850
COc1cc(OC)cc(-c2c(Sc3ccccc3)c3cc(-c4ccc(OC)c(F)c4)ccc3n2C)c1	5357
CC(C)c1c(C(=O)Nc2ccccc2)c(-c2ccccc2)c(-c2ccc(F)cc2)n1CC[C@@H](O)C[C@@H](O)CC(=O)O	5361
C[C@@H](c1ccccc1)N1C[C@@H](COCc2ccccc2)Oc2cc(N3CCC[C@H]3CO)ccc2S1(=O)=O	7847
O=C1CSC(=S)N1N=Cc1c(F)cccc1Cl	3804
CN1OC[C@@H]2CN[C@H](c3ccc(-c4ccccc4)cc3)C[C@@H]21	2754
O=C(NCC(=O)N1CCN(C(c2ccccc2)c2ccccc2)CC1)c1ccccc1Br	4243
COc1cc2c(cc1N)-c1ccc(N)cc1C2=O	3621
Cc1cccnc1C1=NOC(Cc2ccccc2)C(=O)N1Cc1ccc(F)cc1 (stereo unspecified)	5151
CCCCNC(=O)C[C@@H]1C[C@@]2(C(=O)OCC)CCC=C2N(Cc2cccc3ccccc23)C1=O	5991

Reformatted as a markdown table: part of the list above
| Structure | Bead autofluor |
| --- | --- |
| Cc1ccc(S(=O)(=O)N2C[C@@H](C)[C@]3(C2)[C@H](O)[C@H](OC(=O)NCc2ccco2)C[C@H]2C(=O)N(c4ccccc4)C(=O)[C@H]23)cc1 | 3574 |
| CCSc1ccc(-c2cc(NC=O)c3ncc(-c4cc(OC)c(OC)c(OC)c4)n3c2)cc1 | 3946 |
| CN1CCn2cnc(C(=O)NCc3ccc(CNC(=O)OC(C)(C)C)cc3)c2C1=O | 5979 |
| Cc1nc(-c2cccc(NC(=O)c3ccc(Cl)c(S(=O)(=O)N4CCCC4)c3)c2)cs1 | 3779 |
| COc1cccc(NC(=O)C2(C)CCN2C(=O)CCc2ccc(Cl)cc2Cl)c1 (stereo unspecified) | 3800 |
| CCCCNC(=O)C1(C)CCCCN1C(=O)c1sccc1C (stereo unspecified) | 2850 |
| COc1cc(OC)cc(-c2c(Sc3ccccc3)c3cc(-c4ccc(OC)c(F)c4)ccc3n2C)c1 | 5357 |
| CC(C)c1c(C(=O)Nc2ccccc2)c(-c2ccccc2)c(-c2ccc(F)cc2)n1CC[C@@H](O)C[C@@H](O)CC(=O)O | 5361 |
| C[C@@H](c1ccccc1)N1C[C@@H](COCc2ccccc2)Oc2cc(N3CCC[C@H]3CO)ccc2S1(=O)=O | 7847 |
| O=C1CSC(=S)N1N=Cc1c(F)cccc1Cl | 3804 |
| CN1OC[C@@H]2CN[C@H](c3ccc(-c4ccccc4)cc3)C[C@@H]21 | 2754 |
| O=C(NCC(=O)N1CCN(C(c2ccccc2)c2ccccc2)CC1)c1ccccc1Br | 4243 |
| COc1cc2c(cc1N)-c1ccc(N)cc1C2=O | 3621 |
| Cc1cccnc1C1=NOC(Cc2ccccc2)C(=O)N1Cc1ccc(F)cc1 (stereo unspecified) | 5151 |

Other results follow:
SMILES	Bead autofluor
O=C(C[C@H]1C(=O)N(Cc2ccccc2)C[C@@H]1c1ccc(Br)cc1)Nc1ccc(Br)cc1	3722
C[C@H](CO)N1C[C@H](C)[C@@H](CN(C)C(=O)Nc2cccc(Oc3ccccn3)c2)OCc2cnnn2CCCC1=O	3431
CC(C)c1ccc(NC(=O)C2Cc3c(-c4ccc5c(c4)OCO5)ccnc3O2)cc1 (stereo unspecified)	2942
CCN(CC)C(=O)C1=C(C)N(Cc2ccc(OC)cc2)C(=O)C(CC(=O)NC2CCCC2)C1 (stereo unspecified)	3370
COc1ccc([C@H]2C[C@H](n3cc(C4CC4)nn3)[C@@H](O)CN2CC2CCCCC2)cc1	4585
Cc1cn([C@H]2C[C@H](O)[C@@H](/C=C/C(=O)NCc3ccco3)O2)c(=O)[nH]c1=O	5599
CCCCN(CCCC)Cc1cc(=O)oc2ccccc12	5968
OC[C@@H]1CN(CCN2CCOCC2)C[C@H](n2cnc3c(N4CCOCC4)ncnc32)O1	4025
COc1ccc(-c2[nH][nH]c(=O)c2NC(=O)c2ccccn2)cc1	4331
CCc1ccc(CN2CCC(Oc3cc(C(=O)NC4CC4)ccc3OC)CC2)cc1	2951
CN(C)c1ccc(-c2ccnc3c2CC(C)(C(=O)NCc2ccccc2)O3)cc1 (stereo unspecified)	3786
CCOC(=O)C1=CCCN(S(=O)(=O)c2ccc(C)cc2)C1	4341
CCCCn1nnnc1C(c1cc2ccccc2o1)N1CCN(C(=O)OC(C)(C)C)CC1 (stereo unspecified)	4648
CC(=O)N1CCCC(c2cc(C(=O)Nc3ccccc3)no2)C1 (stereo unspecified)	2793
CC1(C(=O)NS(=O)(=O)c2ccc(C#N)cc2)CCN1C(=O)C1CCCCC1 (stereo unspecified)	3573
Cc1cc2nc(-c3ccccc3)c(Cc3cccc(F)c3)n2c(C)c1Br	5507
COc1ccc(-c2cc(C(=O)NCc3ccc(C(F)(F)F)cc3)[nH]n2)c(C)c1	3953
CC(=O)c1c(C)[nH]c(C(=O)OCC(=O)c2ccc(Br)cc2)c1C	3704
C[C@H]([C@@H](O)[C@@H](O)[C@@H](C)C(C)(C)C)[C@H]1CC[C@H]2C3CC[C@H]4C[C@H](OS(=O)(=O)O)[C@@H](OS(=O)(=O)O)C[C@]4(C)[C@H]3CC[C@]12C (stereo partly specified)	4679
C[C@H]1CN([C@@H](C)CO)C(=O)CCCn2cc(nn2)CO[C@@H]1CN(C)C(=O)Oc1ccccc1	4251
CCOC(=O)[C@]12Cc3cc4ccccc4cc3[C@H]1N(Cc1ccccc1)C(=O)c1ccccc12	5162
C[C@H](CO)N1C[C@H](C)[C@@H](CN(C)Cc2ccc(O)cc2)OCc2cnnn2CCCC1=O	4290

The list is partial, so the mix of outcomes need not match the whole.
